# Vaccinia stage = blocks a specific stage of Vaccinia orthopoxvirus infection, primary screen, cell-based, single point; Vaccinia-infected cells, mCherry/Venus stage reporter fluorescence; hits give low values; some inactives read as strong as hits; actives 0.01% (n = 89,000); activity change (mCherry), % (concentration not given with the values);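 active = mCherry past -33% and 40 or more points under the early reporter, replicates agreeing; inconclusive = past -33% without that gap or agreement; tested in A549 cells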;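 note: scaled between vehicle wells and reference inhibitor wells; 23 nL library stock went into each well; one replicate is shown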
# Vaccinia stage Venus = also measured in Vaccinia stage; calls as there; activity change (Venus), %; measured here: Venus reporter, other viral stage;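 negative = less Venus signal; first of two replicates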
# The depositor's hits bear a star; ? = inconclusive; nt = not tested or not shown; & = joins results of further samples. These rows are one share of the data, so the mix of outcomes need not match the whole.
Compound | Vaccinia stage Venus | Vaccinia stage
C[C@@H]1CN([C@H](C)CO)S(=O)(=O)c2ccc(C#CCN(C)C)cc2O[C@H]1CN(C)C(=O)Nc1ccccc1F | 5.1 | -10.5
CC(C)NC(=O)N(C)C[C@H]1Oc2ccc(NS(C)(=O)=O)cc2C(=O)N([C@@H](C)CO)C[C@@H]1C | 2.4 | 8.5
CN1C(=O)c2cc(NC(=O)C3CCOCC3)ccc2OC[C@@H]2O[C@H](CC(=O)NC3CCCC3)CC[C@H]21 | 7.7 | 11.9
C[C@H]1CN([C@@H](C)CO)S(=O)(=O)c2ccc(C3=CCCC3)cc2O[C@@H]1CN(C)C(=O)C1CCC1 | -0.6 | -8.0
C[C@H](O)C#Cc1ccc2c(c1)O[C@H](CN(C)CC1CCCCC1)[C@H](C)CN([C@H](C)CO)S2(=O)=O | -1.3 | -3.1
Cc1ccc(OC(=O)N(C)C[C@@H]2OCc3ccccc3-c3ccccc3C(=O)N([C@@H](C)CO)C[C@H]2C)cc1 | -5.3 | -11.5
COCC#Cc1ccc2c(c1)O[C@@H](CN(C)S(=O)(=O)c1cccc(F)c1)[C@@H](C)CN([C@@H](C)CO)S2(=O)=O | -9.8 | -1.1
C[C@H](CO)N1C[C@H](C)[C@@H](CN(C)S(=O)(=O)c2ccccc2)Oc2ccc(NC(=O)Nc3cccc4ccccc34)cc2CC1=O | 25.2 | 25.3
COc1cccc(S(=O)(=O)Nc2ccc3c(c2)C(=O)N(C)C[C@H](OC)[C@H](C)CN(C(=O)Cc2cccnc2)[C@H](C)CO3)c1 | 12.6 | 31.2
CC(C)NC(=O)Nc1cccc2c1O[C@@H](CN(C)S(=O)(=O)c1ccccc1)[C@@H](C)CN([C@H](C)CO)C2=O | 9.0 | 12.7
COc1cccc(C#Cc2cnc3c(c2)C(=O)N([C@@H](C)CO)C[C@H](C)[C@H](CN(C)C)O3)c1 | -21.3 | -33.2
O=C(Cc1ccncc1)Nc1ccc2c(c1)[C@@H]1C[C@H](CC(=O)N3CCCCC3)O[C@H](CO)[C@@H]1O2 | 8.1 | 15.3
O=C(C[C@@H]1CC[C@H](NC(=O)CN2CCOCC2)[C@@H](CO)O1)NCc1cccc(F)c1 | 1.8 | 1.4
CO[C@H]1CN(C)C(=O)c2ccc(NC(=O)C3CC3)cc2OC[C@@H](C)N(C(=O)NC(C)C)C[C@H]1C | -7.1 | -0.8
C[C@@H]1CCCCO[C@H](CN(C)C(=O)CCCN(C)C)[C@@H](C)CN([C@H](C)CO)C(=O)c2cc(N(C)C)ccc2O1 | 2.7 | -1.6
O=C(C[C@H]1CC[C@H](NS(=O)(=O)c2ccccc2)[C@@H](CO)O1)NCCN1CCCCC1 | 8.1 | 7.2
CC(C)CC#Cc1ccc2c(c1)O[C@@H](CN(C)Cc1ccncc1)[C@@H](C)CN([C@@H](C)CO)S2(=O)=O | nt | ?
CN1C(=O)c2cc(NS(=O)(=O)c3ccccc3Cl)ccc2OC[C@H]2O[C@H](CC(=O)O)CC[C@H]21 | 6.3 | 7.8
C[C@@H]1CN([C@@H](C)CO)C(=O)c2cc(C#CC3(O)CCCC3)cnc2O[C@@H]1CN(C)CC1CC1 | 13.3 | 18.1
C[C@H](CO)N1C[C@H](C)[C@@H](CN(C)C(=O)Nc2ccc3c(c2)OCO3)Oc2ccc(NC(=O)NC3CCCCC3)cc2C1=O | 3.8 | 16.8
O=C(NCC1CCCCC1)[C@@H]1[C@@H](CO)[C@@H]2Cn3c(cccc3=O)[C@H]1N2CCc1ccccc1 | 9.9 | 14.6
Cc1noc(C)c1NC(=O)Nc1ccc2c(c1)C(=O)N([C@@H](C)CO)C[C@H](C)[C@H](CN(C)C(=O)Nc1ccc3c(c1)OCO3)OCCCC[C@H](C)O2 | -3.5 | 5.4
C[C@@H]1CN([C@@H](C)CO)C(=O)c2cccc(NC(=O)Nc3ccccc3)c2O[C@H]1CN(C)S(=O)(=O)c1cn(C)cn1 | 13.7 | 21.3
O=C(CC(F)(F)F)N1C[C@@H]2[C@H](c3ccccc31)[C@@H](CO)N2CC1CCCCC1 | nt | ?
CCc1cnc(N2[C@H](C#N)[C@H](c3ccc(C#Cc4ccccc4F)cc3)[C@H]2CO)s1 | -29.7 | -33.8
COCC#Cc1ccc2c(c1)O[C@H](CN(C)C(=O)c1ccccc1F)[C@@H](C)CN([C@@H](C)CO)S2(=O)=O | -14.0 | -15.4
CO[C@H]1CN(C)C(=O)c2ccc(NC(=O)c3nc4ccccc4s3)cc2OC[C@@H](C)NC[C@H]1C | -34.0 | -34.7
C[C@@H]1CCCCO[C@H](CN(C)C(=O)Cc2ccccc2)[C@@H](C)CN([C@@H](C)CO)C(=O)c2cc(N(C)C)ccc2O1 | -5.0 | -18.2
C[C@@H]1CCCCO[C@H](CN(C)Cc2ccccc2)[C@@H](C)CN([C@H](C)CO)C(=O)c2cc(NS(=O)(=O)c3cccs3)ccc2O1 | -14.0 | -1.4
Cc1noc(C)c1NC(=O)Nc1ccc2c(c1)C(=O)N([C@@H](C)CO)C[C@@H](C)[C@@H](CN(C)Cc1ccc(C(=O)Nc3ccccc3N)cc1)O2 | 3.7 | 13.2
C[C@H](CO)N1C[C@H](C)[C@H](CN(C)C(=O)Nc2ccc3c(c2)OCO3)Oc2cc(C3=CCCCC3)ccc2S1(=O)=O | nt | ?
C[C@@H]1CN([C@H](C)CO)C(=O)c2ccccc2-c2ccccc2CO[C@H]1CN(C)C(=O)Nc1ccc2c(c1)OCO2 | 19.1 | 20.1
C[C@H](CO)N1C[C@H](C)[C@H](CN(C)Cc2ccc3c(c2)OCO3)Oc2ccc(NS(C)(=O)=O)cc2C1=O | -8.9 | -6.7
C[C@@H]1CN([C@H](C)CO)C(=O)c2cc(C#CCN(C)C)cnc2O[C@@H]1CN(C)C(=O)c1cccnc1 | 7.8 | 23.1
CCCC#Cc1ccc([C@H]2[C@H](CO)N3CCCCN(CC4CC4)C[C@@H]23)cc1 | -15.2 | -24.6
C[C@H]1CN([C@@H](C)CO)C(=O)c2cccc(NC(=O)NC3CCCCC3)c2O[C@@H]1CN(C)S(=O)(=O)c1ccccc1 | -9.8 | -15.4
C[C@@H]1CN([C@H](C)CO)C(=O)CCCn2cc(nn2)CO[C@H]1CN(C)S(=O)(=O)c1ccccc1 | 13.4 | 12.1
C[C@@H]1CN([C@@H](C)CO)C(=O)c2cc(NS(C)(=O)=O)ccc2O[C@@H](C)CCCCO[C@H]1CN(C)C(=O)c1ccncc1 | 14.6 | 7.3
CNC(=O)C[C@H]1CC[C@@H]2[C@@H](COc3ccc(NC(=O)Nc4ccccc4OC)cc3C(=O)N2C)O1 | 0.8 | 7.9
C[C@@H]1CCCCO[C@@H](CN(C)CC2CCCCC2)[C@@H](C)CN([C@H](C)CO)C(=O)c2cc(NS(C)(=O)=O)ccc2O1 | 4.1 | -2.2
C[C@H]1CN([C@@H](C)CO)C(=O)c2cccc(NS(=O)(=O)c3ccc(F)cc3)c2O[C@@H]1CN(C)C | 6.0 | 14.7
CCCNC(=O)N1[C@@H](CO)[C@@H]2c3ccccc3N(C(=O)Nc3cccc(F)c3)C[C@@H]21 | 8.0 | 4.7
C[C@H](CO)N1C[C@H](C)[C@@H](CN(C)C(=O)Nc2ccc(C(F)(F)F)cc2)Oc2ccc(NC(=O)NC3CCCCC3)cc2C1=O | 5.8 | 7.1
COc1ccc(S(=O)(=O)N(C)C[C@H]2OCCCC[C@H](C)Oc3ccc(NS(=O)(=O)c4ccccc4)cc3C(=O)N([C@@H](C)CO)C[C@H]2C)cc1 | -2.7 | -7.9
O=C(Nc1ccccc1F)N1[C@@H]2CNC[C@H]1C2c1ccc(-c2ccccc2)cc1 (stereo partly drawn) | -3.4&-8.4 | -20.4&-15.6
COc1ccc(-c2ccc3c(c2)[C@@H]2[C@@H](CCN2C(=O)c2ccc4c(c2)OCO4)[C@@H](CO)N3C)cc1 | nt | ?
COCC(=O)N1[C@H](C#N)[C@H](c2ccc(C#CCC3CCCC3)cc2)[C@H]1CO | -27.7 | -32.4
C[C@H]1CN([C@@H](C)CO)S(=O)(=O)c2ccc(C#CCC3CCCC3)cc2O[C@H]1CN(C)C(=O)CN(C)C | nt | ?
C[C@@H]1CCCCO[C@@H](CN(C)C(=O)Nc2ccc(C(F)(F)F)cc2)[C@@H](C)CN([C@H](C)CO)C(=O)c2cc(NC(=O)Nc3cccc4ccccc34)ccc2O1 | 7.8 | 6.1
C[C@H]1CN([C@@H](C)CO)C(=O)c2cccc(NC(=O)c3ccc(-c4nccs4)cc3)c2O[C@@H]1CN(C)Cc1ccccc1 | nt | ?
C[C@H](CO)N1C[C@H](C)[C@@H](CN(C)S(=O)(=O)c2ccc(F)cc2)Oc2ccc(NC(=O)CCCCCC(=O)Nc3ccccc3N)cc2C1=O | 12.4 | 17.3
N#C[C@H]1[C@@H](c2ccccc2-c2ccc(F)cc2)[C@H](CO)N1c1ncc(-c2ccccc2)s1 | 0.2 | -2.0
C[C@H]1CN([C@@H](C)CO)C(=O)c2cc(NC(=O)Cc3cn(C)c4ccccc34)ccc2O[C@@H]1CN(C)S(=O)(=O)c1ccc(Cl)cc1 | 14.3 | 15.3
CO[C@H]1CN(C)C(=O)c2cc(NC(=O)c3cnccn3)ccc2OC[C@H](C)N(C(C)=O)C[C@H]1C | 7.9 | 10.1
COc1ccc(-c2ccc([C@H]3[C@@H](CO)N4C(=O)CN(C(=O)c5cccnc5)C[C@H]34)cc2)cc1 | 1.9 | -3.5
C[C@H](CO)N1C[C@H](C)[C@@H](CN(C)C(=O)c2cccnc2)Oc2ncc(-c3ccc(C(=O)N(C)C)cc3)cc2C1=O | 3.5 | 17.1
C[C@H](CO)N1C[C@H](C)[C@H](CN(C)S(=O)(=O)c2cn(C)cn2)Oc2ccc(NC(=O)Cn3cnnn3)cc2C1=O | 3.3 | 4.4
O=C(C[C@H]1C[C@@H]2c3cc(NC(=O)NC4CCCC4)ccc3O[C@@H]2[C@H](CO)O1)NCc1ccncc1 | 3.2 | 3.3
O=C(NCC1CCCCC1)[C@@H]1[C@@H](CO)[C@@H]2Cn3c(ccc(-c4ccc(F)cc4)c3=O)[C@H]1N2 | 12.7 | 11.2
CC(C)NC(=O)Nc1ccc2c(c1)C(=O)N([C@H](C)CO)C[C@H](C)[C@H](CN(C)Cc1ccc(C(F)(F)F)cc1)O2 | -7.0 | -5.5

# Fetched by compound from above:
Compound | Vaccinia stage Venus | Vaccinia stage
C[C@@H]1CCCCO[C@@H](CN(C)C(=O)Nc2ccc(C(F)(F)F)cc2)[C@@H](C)CN([C@H](C)CO)C(=O)c2cc(NC(=O)Nc3cccc4ccccc34)ccc2O1 | 7.8 | 6.1
O=C(C[C@H]1C[C@@H]2c3cc(NC(=O)NC4CCCC4)ccc3O[C@@H]2[C@H](CO)O1)NCc1ccncc1 | 3.2 | 3.3
N#C[C@H]1[C@@H](c2ccccc2-c2ccc(F)cc2)[C@H](CO)N1c1ncc(-c2ccccc2)s1 | 0.2 | -2.0
COc1ccc(-c2ccc([C@H]3[C@@H](CO)N4C(=O)CN(C(=O)c5cccnc5)C[C@H]34)cc2)cc1 | 1.9 | -3.5

# Later entries
Compound | Vaccinia stage Venus | Vaccinia stage
C[C@H]1CN([C@@H](C)CO)C(=O)Cc2cc(NC(=O)CCC(F)(F)F)ccc2O[C@H]1CN(C)CC1CC1 | 5.5 | -3.5
COc1ccc(NC(=O)N(C)C[C@H]2Oc3ccc(NC(=O)CCC(F)(F)F)cc3CC(=O)N([C@H](C)CO)C[C@@H]2C)cc1 | 5.0 | 7.6
C[C@H](CO)N1C[C@H](C)[C@H](CN(C)S(=O)(=O)c2ccc(C(F)(F)F)cc2)OCc2ccccc2-c2ccccc2C1=O | nt | ?
CN1C(=O)c2cc(NC(=O)C3CCCC3)ccc2OC[C@@H]2O[C@H](CC(=O)O)CC[C@@H]21 | -2.6 | 4.3
C[C@@H]1CN([C@H](C)CO)C(=O)c2cc(NS(C)(=O)=O)ccc2O[C@@H]1CN(C)CC1CC1 | 21.0 | 17.3
CCCN1C[C@H](C)[C@H](OC)CN(C)C(=O)c2cc(NC(=O)c3ccc(F)cc3)ccc2OC[C@H]1C | -4.7 | -13.1
COc1cccc(S(=O)(=O)N2C[C@H](O)COC[C@H]3O[C@@H](CC(=O)NCCCN4CCOCC4)CC[C@@H]32)c1 | 12.1 | -2.5
CN1CCN(C(=O)C[C@@H]2CC[C@@H]3[C@H](COC[C@H](O)CN3S(=O)(=O)c3cccc(F)c3)O2)CC1 | 8.8 | 15.8
Cc1noc(C)c1S(=O)(=O)N(C)C[C@H]1OCCCC[C@H](C)Oc2ccc(NC(=O)c3ccccc3)cc2C(=O)N([C@@H](C)CO)C[C@@H]1C | -13.5 | -27.8
CO[C@@H]1CN(C)C(=O)c2ccc(NC(=O)CC(F)(F)F)cc2OC[C@H](C)N(S(=O)(=O)c2cn(C)cn2)C[C@H]1C | 12.4 | 9.9
CO[C@H]1CN(C)C(=O)c2cc(NC(C)=O)ccc2OC[C@H](C)N(C(=O)Cc2ccccn2)C[C@@H]1C | -0.7 | -0.2
COc1ccc2c3c(n(C)c2c1)[C@@H](CO)N(C(=O)CC1CC1)CC31CCN(C(=O)CC2CC2)CC1 | -1.9 | 7.1
C[C@H](CO)N1C[C@H](C)[C@H](CN(C)C(=O)Nc2ccc(F)cc2)Oc2ccc(NC(=O)CCCCCC(=O)Nc3ccccc3N)cc2C1=O | 2.2 | 6.7
O=C(C[C@H]1CC[C@@H]2[C@H](COC[C@H](O)CN2CCc2ccccc2)O1)NCCCN1CCOCC1 | -6.0 | 1.9

# Reformatted as labelled records: 2 of the compounds above.
COc1ccc(NC(=O)N(C)C[C@H]2Oc3ccc(NC(=O)CCC(F)(F)F)cc3CC(=O)N([C@H](C)CO)C[C@@H]2C)cc1
  Vaccinia stage Venus = 5.0
  Vaccinia stage = 7.6

CO[C@H]1CN(C)C(=O)c2cc(NC(C)=O)ccc2OC[C@H](C)N(C(=O)Cc2ccccn2)C[C@@H]1C
  Vaccinia stage Venus = -0.7
  Vaccinia stage = -0.2
